# Source: PubChem (Fisher Drug Discovery Resource Center)
# NPYLR7 ag = agonists of mosquito NPYLR7 receptor, primary screen, cell-based, Aedes aegypti, calcium fluorescence, mosquito biting behavior | activation, % at 10 µM | AID 1259423, 2018 | 270,000 compounds, 0.15% hits | HEK293T NPYLR7/Galpha15, GCaMP6s calcium fluorescence; in the data active means activation above about 40%;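 further: 0% = vehicle and 100% = reference agonist at the receptor; some compounds past the cut are filed as inactive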
# NPYLR7 ag max-min = further read-out of NPYLR7 ag, marked with its call; activation, %; measured here: Max-Min RFU normalised activation; some inactives read as strong as hits;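 span of the calcium signal over five minutes; 0% = vehicle and 100% = native peptide agonist; compound fluorescence can raise it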
# * marks the source's active call; other numbers are inactive results; & = joins results of further samples. Only part of the results is shown; count on the stated rates, not on these rows.
# The first seven entries as a preview:
Compound	NPYLR7 ag	NPYLR7 ag max-min
Cc1ccc(S(=O)(=O)N2CCC3(CC2)NC(CC(C)C)C(=O)N3CC2CC2)cc1 (stereo not drawn)	3	2
CCn1cc(C(CC(=O)N2CCC3(CC2)OCCO3)c2ccc(F)cc2)c2ccccc21 (stereo not drawn)	5	12
CCCC(=O)N1CCC1(C)C(=O)NCc1ccc(C(C)C)cc1 (stereo not drawn)	-6	-6
Cc1ccc(C)c(S(=O)(=O)N2CCC(=O)Nc3cc(F)ccc32)c1	-5	-5
Cc1sc2ncnc(NN=C3CCSc4ccc(F)cc43)c2c1C	12	18
Cc1ccc(CNC(=O)C2CCc3cn[nH]c3C2)cc1 (stereo not drawn)	6	4
CCCn1cnnc1CNc1nc(-c2cccnc2)nc2c1cnn2C	-2	-7

# Results (from the top)
Compound	NPYLR7 ag	NPYLR7 ag max-min
Cc1ccc(S(=O)(=O)N2CCC3(CC2)NC(CC(C)C)C(=O)N3CC2CC2)cc1 (stereo not drawn)	3	2
CCn1cc(C(CC(=O)N2CCC3(CC2)OCCO3)c2ccc(F)cc2)c2ccccc21 (stereo not drawn)	5	12
CCCC(=O)N1CCC1(C)C(=O)NCc1ccc(C(C)C)cc1 (stereo not drawn)	-6	-6
Cc1ccc(C)c(S(=O)(=O)N2CCC(=O)Nc3cc(F)ccc32)c1	-5	-5
Cc1sc2ncnc(NN=C3CCSc4ccc(F)cc43)c2c1C	12	18
Cc1ccc(CNC(=O)C2CCc3cn[nH]c3C2)cc1 (stereo not drawn)	6	4
CCCn1cnnc1CNc1nc(-c2cccnc2)nc2c1cnn2C	-2	-7
Cc1cc(C(C)(C)C)cc(C)c1C[n+]1ccc2ccccc2c1	2	10
CCc1nc2ccc(C(=O)Nc3ccc(C(N)=O)cc3)cn2c1N(C)CCC(C)C	-11	-15
CCOC(=O)c1c(NC(=S)NC(=O)c2ccccc2)sc2c1CCC2	-5	-12
CCc1ccc(CN2CCC(CNC(=O)c3ccncc3)CC2)nc1	-1	-1
COCCNC(=O)C(c1ccccc1)N1C(=O)CSC1c1ccc(F)cc1 (stereo not drawn)	20	30
Cc1ccc(C2(O)CCN(Cc3[nH]c4ccc(F)cc4c3C)CC2)nc1	7	6
COc1cccc(NC(=O)C2(C)CCN2C(=O)Cc2cccs2)c1 (stereo not drawn)	-5	-7
Cc1cc(C(F)(F)F)c2c(C)c(C(=O)O)sc2n1	1	1
COc1nn(C)cc1C(=O)Nc1nccs1	-1	5
c1ccn2cc(C34CC5CC(CC(C5)C3)C4)cc2c1	4	3
Cc1cn2c3c(=O)n(CCCO)c(=O)n(C)c3nc2n1Cc1ccccc1	6	9
O=C(Nc1ccc(Oc2ccccc2F)cc1)C1CCN(C(=O)C#Cc2ccccc2)CC1	-2&0	-2&-3
CCc1ccc(CN2CCN(C(=O)c3cc(C(N)=O)c[nH]3)CC2)s1	1	-3
Cc1ccc(Oc2ncccc2CNC(=O)C(C)Cn2cncn2)cn1 (stereo not drawn)	3	1
CCCCc1ccc(N2C(=O)c3cccc4c([N+](=O)[O-])ccc(c34)C2=O)cc1	4	-11
CCOC(=O)C1(Cc2ccccc2C(F)(F)F)CCN(C(=O)CC2=CCCCC2)CC1	9	12
Cc1cc(C(=O)N2CCCCC2c2ncc[nH]2)c(C)n1Cc1ccccc1 (stereo not drawn)	-9	-10
Cc1cc(N2CCOCC2)nc(Nc2ccc(NS(=O)(=O)c3ccc4nc(C)sc4c3)cc2)n1	8	4
CCOc1ccc(-n2ccnc(SCc3ccc(C)cc3)c2=O)cc1	-2	5
CC1=C(C(=O)N2CCC3(CCCN(CC4CCC4)C3=O)C2)OCCO1 (stereo not drawn)	5	3
CC(C)(C)c1ccc(C(=O)N2CCC2(C)C(=O)NS(=O)(=O)c2cccc(F)c2)cc1 (stereo not drawn)	2	5
Fc1ccccc1N1CCN(C2CCCN(C3C4CC5CC(C4)CC3C5)C2)CC1 (stereo not drawn)	3	2
CC(C)c1nc(CCNC(=O)c2cn(-c3ccccc3)nn2)cs1	-1	-3
COc1nc(-c2ccc3c(c2)OCO3)n(-c2ccc(NC(=O)/C=C/c3ccccc3)cc2)n1	21	26
CCOc1ccc(N2CCn3c(SC)nnc32)cc1	1	1
CCC(C)NC(=O)C(=O)N1CCC(N2CCC(C(=O)NC(C)C)CC2)CC1 (stereo not drawn)	15	9
CCOC(=O)c1cc(-c2ccc(N3CCN(C(=O)c4cccnc4SC)CC3)cc2)n(-c2cccc(F)c2)n1	26	13
Cc1ccc(C)c(N2CCn3c2nc2c3c(=O)n(Cc3ccc(F)cc3)c(=O)n2C)c1	6	5
CC(C)c1cc(C2CCN(C(=O)c3ccc4c(c3)CCO4)CC2)[nH]n1	1	-1
CNc1nnc(SC(C)C(=O)N2c3ccccc3CC2C)s1 (stereo not drawn)	-12	-13
Cc1cc(CC(=O)NCC(C)Oc2cccnc2)on1 (stereo not drawn)	16	10
CCCc1nc(N2CCCN(C(=O)Nc3ccc(OCC)cc3)CC2)c2c(-c3cccc(C(F)(F)F)c3)noc2n1	12	0
O=C(c1cnn(-c2ccccc2)c1C(F)(F)F)N(Cc1nc2cc(Cl)ccc2o1)C1CC1	34	39
CCOC(=O)C1(CCOc2ccccc2)CCCN(C(=O)c2scc3c2OCCO3)C1 (stereo not drawn)	15	4
COCCNc1nc(NCc2ccccc2)c2cnn(C)c2n1	6	2
O=c1cc(CCn2cnc(-c3ccccc3)c2-c2cccc3cccnc23)nc[nH]1	3	2
C=CC[C@@H]1CC=C[C@@H](C)N1C(=O)c1cccc2ccnn12	-3	-5
COc1ccccc1NC(=O)c1cc(-c2ccc(C)c(C)c2)nc2ccccc12	1	4
CC(=O)OC(C)(C)C(=O)NCc1ccc(-c2ncc(-c3ccc(F)cc3)[nH]2)cc1	18	28
CC(=O)O[C@@H](C)C(=O)N1CCc2c([nH]c3ccccc23)C1c1ccc([N+](=O)[O-])c(Cl)c1 (stereo partly drawn)	-5	-9
Cc1ccccc1C1=NC(C)(CC(=O)N(C)Cc2ccccc2)ON1C (stereo not drawn)	7	3
O=S(=O)(Nc1cc(Cl)cc(Cl)c1)c1cccs1	3	11
CC(Cn1cncn1)Nc1ccc(-c2nc(Cc3ccccc3)no2)cn1 (stereo not drawn)	8	5
Cc1cc(NCCN2CCNC2=O)nc(-c2ccccc2)n1	10	6
CCCCN(C)c1c(C)nc2ccc(C(=O)NCc3ccccc3OC)cn12	-7	-10
CC(C)=NNc1nc(Cl)c(C#N)c(Cl)c1Cl	-6	-10
COCCn1c(SCC(=O)OC)nc2scc(-c3ccc(F)cc3)c2c1=O	18	14
COc1ccc(-c2nc3ccccc3c(=O)n2CCc2ccccc2)c(OC)c1	3	1
CC1(C(=O)NS(=O)(=O)c2ccc(Cl)cc2)CCN1C(=O)Cc1ccsc1 (stereo not drawn)	-1	-3
O=C(Nc1ccc(-c2noc(-c3ccc(Br)o3)n2)cc1)c1ccco1	-1	-3
CC(C)n1cc(C#N)c(NC(=O)C2CC23CCc2ccccc23)n1 (stereo not drawn)	3	3
CC(=O)NCCC1CN(Cc2ccc(C)c3ncccc23)CCO1 (stereo not drawn)	0	1
COCCNS(=O)(=O)c1ccc2[nH]cc(C(=O)O)c(=O)c2c1	3	5

# (more compounds)
Compound	NPYLR7 ag	NPYLR7 ag max-min
FC(F)(F)c1nc2ccccc2[nH]1	-1&2	-2&2
COc1ccc(CC(=O)NCC2CCCN(C(=O)CSc3ccccn3)C2)cc1 (stereo not drawn)	1	-4
CC1CC(C)CN(C(=O)C(C)S(=O)(=O)Cc2ccc(C(C)(C)C)cc2)C1 (stereo not drawn)	-4	-4
COC(=O)c1ccc(N2C(=O)CSC2c2ccc(C)cc2)cc1 (stereo not drawn)	-7	-5
CCN(C(=O)c1cnc2sccn2c1=O)c1ccccc1	0	-3
Nc1ccc(C(=O)O)c(O)c1	-5&-10&4	-9&-14&-7
OC(c1ccccc1)c1nc2ccccc2n1Cc1cccc2ccccc12 (stereo not drawn)	0	0
CC1(C)CC(=O)C2C(=Nc3nc(N)[nH]c(=O)c3C2c2ccc(F)cc2)C1 (stereo not drawn)	-1	28
Cc1ccccc1Nc1ncnc(N)c1[N+](=O)[O-]	4	11
CCc1n[nH]c(=S)n1CCNC(=O)c1cscn1	4	-12
Cc1ccc(Cl)cc1Nc1ncccc1C(=O)Nc1ccc(Cl)cc1	-7	-14
Fc1ccc2nc3c(nc2c1)c1ccccc1n3Cc1c(Cl)cccc1Cl	-8	-11
COC(=O)c1c(C)c(C(=O)C(C)N(Cc2ccc(F)cc2)C(=O)c2cc(OC)cc(OC)c2)c(C)n1C (stereo not drawn)	-12	-8
O=C(N=C1N=C2C=CC(Br)=CN2Cc2ccccc21)c1ccc(Cl)c(Cl)c1	-6	-13
O=C(Nc1ccc(Cl)cc1)C1CCCN1c1ncnc2ccccc12 (stereo not drawn)	-1	-3
COCCOCC(=O)N1CCc2c(sc3[nH]c(=O)n(C(C)C)c(=O)c23)C1	3	1
CCn1ccnc1CN1CCCC(CNC(=O)c2ccc(-c3ccccc3)cc2)C1 (stereo not drawn)	-7	-8
N#Cc1ccc(CN(CCN2CCOCC2)S(=O)(=O)c2ccc(Cl)c([N+](=O)[O-])c2)cc1	-5	-8
Cc1ccc(CC2(C)C(=O)Nc3ccc(Cl)cc32)cc1 (stereo not drawn)	4	2
COc1ccc2cc(CNC(=O)CN3CCCCCC3=O)ccc2c1	3	1
O=C1CN(CCCc2ccccc2)C2CS(=O)(=O)CC2N1c1ccccc1 (stereo not drawn)	0	1
O=C1C=C(Nc2ccc3ccccc3c2)CCC1	3	6
O=C(c1ccc(C(F)(F)F)cc1)N(CC(=O)N1CCc2sccc2C1c1ccc(Cl)cc1Cl)Cc1ccc(F)cc1 (stereo not drawn)	-11	-10
CN(C)c1ccc(NC(=O)Cc2ccc(N3CCCC3=O)cc2)cn1	0	-1
CCc1nc2ccc(C(=O)NCCCN(C)C)cn2c1N(CC)C(C)=O	3	-9
COc1ccc(CN(CC(O)COCC(C)C)CC2CC2)cc1 (stereo not drawn)	19	10
CCn1cnc(NC(=O)N2CCOc3ccc(Cl)cc3C2)n1	17	12
Cc1ncc([N+](=O)[O-])n1CCNC(=O)C(NC(=O)OCc1ccccc1)SC(C)C (stereo not drawn)	-10	-19
O=C(c1ccco1)N1CCN(c2ccc([N+](=O)[O-])c3nonc23)CC1	25	23
CC1CCCN(C(=O)COCC2CCCO2)C1CNC(=O)OC(C)(C)C (stereo not drawn)	1	-2
CCCCCCCOc1ccc(C(=O)NC2C=CC(C(C(=O)OCC)c3cc(OC)ccc3OC)C2)cc1 (stereo not drawn)	4	3
COc1ccc(CN(CC(C)C)C(=O)Cn2[nH]c(=O)ccc2=O)cc1	14	11
Cc1cc(C)cc(C(=O)N2CCc3c(sc4[nH]c(=O)n(C5CCCCC5)c(=O)c34)C2)c1	11	3
CCn1c(=NC(=O)C(C)(C)C)sc2cc(F)cc(F)c21	2	0
CCOC(=O)c1c(-c2ccccc2)csc1NC(=O)C1CCCO1 (stereo not drawn)	-5	-10
CN1CCCCC1CN1CCN(C(=O)Nc2ccc(C#N)cc2)CC1 (stereo not drawn)	9	3
NC(=O)c1ccccc1NC(=S)NC(=O)c1ccco1	4	8
COC(=O)/C(C#N)=C/c1c(Oc2cccc(C)c2)nc2ccccn2c1=O	11	15
C=CC[C@@H]1CC=C[C@@H](C)N1Cc1c(CO)cnc(C)c1O	3	1
CCCCn1c(N2CCN(Cc3c(Cl)cccc3Cl)CC2)nc2c1c(=O)[nH]c(=O)n2C	3	0
CCc1cc2c(=O)n(CC)c(SCc3cc(=O)n4cc(C)ccc4n3)nc2s1	1	6
COCCc1ccc(OS(=O)(=O)c2ccc(C)cc2C)cc1	7	4
Cc1cccc(NC(=O)CSc2nc3c(c(=O)n2Cc2ccccc2)SC(C)C3)c1C (stereo not drawn)	0	-6
COc1ccc(OC)c2sc(N(CCN(C)C)C(=O)c3cc(C)nn3C)nc12	1	0
Cc1cc(CNC(=O)C2(Sc3ccccc3)CCCC2)on1	3	0
COc1cccc2c1NC(=O)CC2C(=O)NCC(=O)NC(C)C (stereo not drawn)	6	2
O=C(c1ccc(Cl)c(F)c1)N1CCN(Cc2cccc(-c3noc(-c4ccccc4)n3)c2)CC1	-5	-11
COc1ccccc1CNc1nc2cc(-c3sccc3C)sc2c(=O)n1C	7	3
CN(C)N1C(=O)CC(NNc2ccccc2)C1=O (stereo not drawn)	-13	-17
COCCOc1nc(-c2cccs2)n(-c2ccc(NC(=O)Nc3cccc(OC)c3)cc2)n1	1	3
COc1cc(CCC(=O)N(C)Cc2ccc(C)o2)cc(OC)c1OC	3	1
CC1(C)C2CCC1(CBr)C(=O)C2Br (stereo not drawn)	-4	-5
OCCNc1ccc(-c2cc3ccccc3o2)nn1	-2	-7
c1nc(N2CCCCC2)c2c3c(sc2n1)CCC3	2	0
CSc1ccc(CN2CCC2(C)C(=O)NCCC(C)C)cc1 (stereo not drawn)	-4	-4
COCC(=O)N(C)Cc1cccc(OC(F)(F)F)c1	9	5
COC(=O)[C@@H]1C[C@H](NS(=O)(=O)c2ccc(Cl)cc2)CN1C	1	0
O=c1[nH]c(CSc2nnnn2C2CC2)nc2cc(Cl)ccc12	-1	13
CC(C)C(=O)Nc1cccc(CNC(=O)N2Cc3ccccc3C2)c1	1	-1

# Retrieved by compound from the list above, 2 records:
Compound	NPYLR7 ag	NPYLR7 ag max-min
COc1cccc2c1NC(=O)CC2C(=O)NCC(=O)NC(C)C (stereo not drawn)	6	2
CCCCCCCOc1ccc(C(=O)NC2C=CC(C(C(=O)OCC)c3cc(OC)ccc3OC)C2)cc1 (stereo not drawn)	4	3
